Menin-MLL FL inh = qHTS Assay for Inhibitors Targeting the Menin-MLL Interaction in MLL Related Leukemias: Competition With Fluorescein Labeled MLL-derived Peptide; Fluorescence polarization, fluorescein-MLL peptide displacement from menin; FP activity change, % at 61.4 µM; 290,000 tested, under 10 active; AID 1766, 2009; inconclusive = falling polarisation curve, or a change in total fluorescence; inactive = total fluorescence flat and polarisation flat or rising; no compound was filed as active; the % refers to the polarisation; negative = inhibition;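 also: % of control where 0% means no effect; inhibitors lower the polarisation; unlabelled MLL peptide was the positive control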
TRPML1 inh = qHTS for Inhibitors of the Human Mucolipin Transient Receptor Potential 1 (TRPML1); Mucolipin-1 (Homo sapiens), Q9GZU1; TRPML1-inducible cells, Ca2+ dye fluorescence, FDSS; hits give low values; inhibition of EC80 agonist-evoked calcium signal; activity change, negative = inhibition, % (concentration not given with the values); actives 0.02% (n = 390,000); in the data active means activity change below about -50%; inconclusive means about -30% to -50%; inactive means above about -30%;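 also: stimulus is agonist 54-4 at its EC80 concentration; % is scaled to controls: 0 for no effect and ±100 for the full control effect; compound concentration not given in the record; the text of the record puts the active cut at -80%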
Target sequence (Q9GZU1 whole entry, looked up): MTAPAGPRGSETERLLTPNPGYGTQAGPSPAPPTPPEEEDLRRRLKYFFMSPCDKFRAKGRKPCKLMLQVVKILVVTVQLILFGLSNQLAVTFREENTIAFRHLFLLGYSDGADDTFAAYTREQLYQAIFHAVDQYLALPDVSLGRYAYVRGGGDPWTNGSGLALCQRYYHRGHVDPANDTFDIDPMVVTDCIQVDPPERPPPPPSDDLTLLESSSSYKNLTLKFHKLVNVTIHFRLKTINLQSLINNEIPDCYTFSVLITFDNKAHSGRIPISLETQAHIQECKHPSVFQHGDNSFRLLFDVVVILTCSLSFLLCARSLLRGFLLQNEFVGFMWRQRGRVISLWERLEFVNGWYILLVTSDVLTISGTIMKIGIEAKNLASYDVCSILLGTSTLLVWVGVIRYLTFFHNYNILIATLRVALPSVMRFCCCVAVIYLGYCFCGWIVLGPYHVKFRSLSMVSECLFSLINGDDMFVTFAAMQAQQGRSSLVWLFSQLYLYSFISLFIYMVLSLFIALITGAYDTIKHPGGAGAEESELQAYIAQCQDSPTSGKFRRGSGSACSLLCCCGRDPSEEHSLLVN
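Tet-induced TRPML1-DL cells loaded with Ca8 no-wash calcium dye were read kinetically on FDSS. Compound addition was followed by EC80 agonist 54-4 (4 uM final); inhibition was read over 110 s.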
ClpP mod = qHTS Assay for Activators of ClpP; ATP-dependent Clp protease proteolytic subunit (Bacillus subtilis (strain 168)), P80244; purified B. subtilis ClpP, FRET peptide cleavage, 20 min; Potency, µM (doses to about 57.5 µM), without a hit: top-dose activity change, negative = active; actives 1.9% (n = 340,000); active = well fitted falling curve with a large enough effect; inconclusive = small, poorly fitted or top-dose-only effect; inactive = no such curve, though single readings can be large or run the other way; also: potency is read from the fitted curve at half-maximal effect; the source files actives as falling curves though it sought activators and does not explain the sign; nearly all actives have a fitted effect of over 65% in size; many hits overshoot -100%
Target sequence (P80244 whole entry, looked up): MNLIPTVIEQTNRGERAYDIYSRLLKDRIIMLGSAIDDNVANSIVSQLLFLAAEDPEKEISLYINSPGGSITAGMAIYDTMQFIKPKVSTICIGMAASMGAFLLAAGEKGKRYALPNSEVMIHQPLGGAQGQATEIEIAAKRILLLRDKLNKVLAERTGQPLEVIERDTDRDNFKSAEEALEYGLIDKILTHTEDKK
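FRET quenching reversal measured ClpP activation: 10 microg/mL B. subtilis ClpP at pH 8 with the FRET-FV decapeptide, read at 430 nm after 320 nm excitation. The 20-min minus 0-min signal was scaled between DMSO/no-enzyme wells and ADEP (5.8 microM final).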
TRPML1 agonist = qHTS for Agonists of the Human Mucolipin Transient Receptor Potential 1 (TRPML1) | Mucolipin-1 (Homo sapiens), Q9GZU1 | TRPML1-expressing cells, Ca2+ dye fluorescence, FDSS; host cell line not named in the record; reference of the full effect not given here | activation, % (concentration not given with the values) | actives 0.12% (n = 410,000); in the data active = activation above about 50%; inconclusive = about 30% to 50%; inactive = below about 30%; also: 0% is about no effect; the text of the record puts the active cut at 80%
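Calcium fluorescence on an FDSS kinetic reader gave the read-out. Tet-induced TRPML1-DL cells were plated overnight, dye-loaded (Ca8 with quencher, 45-90 min, room temperature, dark), then read 110 s after compound addition, and again 110 s after 4uM final 54-4 (EC80).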
gsp ag = qHTS for Agonist of gsp, the Etiologic Mutation Responsible for Fibrous Dysplasia/McCune-Albright Syndrome: qHTS; gsp mutant cells, cAMP HTRF, 30 min; control for the full effect not named in the record; actives 0.13% (n = 340,000); AID 624287, 2012; Potency, µM (series often up to 76.9 µM), for the others: at the top dose activation (cAMP increase), hits mostly activators; active = well fitted activation curve with a large enough effect; inconclusive = small, poorly fitted or top-dose-only effect, or another doubt; inactive = no such curve, though single readings can be large or run the other way; cell line not stated here;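 also: phosphodiesterase inhibitor Ro 20-1724 added with compounds to block cAMP breakdown; potency is read from the fitted curve at half-maximal effect; nearly all actives have a fitted effect of over 60% in size; about a fifth of the inactives were tested at one dose only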
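Cells in DMEM/10% FBS with G418 were pretreated with compounds in DMSO plus […] (300 uM stock) for 30 min at 37C. cAMP was measured by HTRF (cAMP-d2 plus anti-cAMP antibody-K) after 30 min at room temperature.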
gsp antag = qHTS for Antagonists of gsp, the Etiologic Mutation Responsible for Fibrous Dysplasia/McCune-Albright Syndrome: qHTS; gsp-mutant cells, cAMP HTRF, 30 min; control for the full effect not named in the record; Potency, µM (top dose mostly 76.9 µM), without a hit: at the highest dose activity change, negative = inhibition, actives largely listed as inhibitors; actives 0.4% (n = 340,000); active = falling curve of any shape with a large fitted effect; inconclusive = falling curve, mostly with a smaller effect; inactive = flat or rising curve; cell line not stated here;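 also: intracellular cAMP measured with PDE inhibitor Ro 20-1724 present during compound exposure; potency is read from the fitted curve at half-maximal effect; % is scaled to controls: 0 for no effect and ±100 for the full control effect; nearly all actives have a fitted effect of over 65% in size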
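HTRF cAMP measurement after 30 min RT detection following 30 min, 37C compound treatment alongside […] (added as 300 uM solution) in G418-selected cells seeded at 2000/well and grown 16–24 h.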
Starred values were filed as active, the others as inactive; u = inconclusive; x = not tested or not shown; [ ] = dose if it differs, or a comment.

Compound,Menin-MLL FL inh,TRPML1 inh,ClpP mod,TRPML1 agonist,gsp ag,gsp antag
O=C(NCCc1ccc(Cl)cc1)c1cc(-c2ccccn2)nc2ccccc12,1.6,46,-0.3%,1.8,-36%[inhibitor],-28%
COc1cccc(NC(=O)c2ncc(Cl)c(Cl)c2Cl)c1,-4.0,4,-0.6%,-0.9,-3%[15.4 µM],-17%
COC(=O)Nc1ncc(CN2CCCCC2)s1,-2.1,-7,-1.5%,1.1,u,4%
COc1ccccc1OCCSc1nc2ccc([N+](=O)[O-])cc2s1,9.1,-22,-2.5%,3.1,-16%,-31%
COc1ccc(-c2ccc(/C=N/NC(=O)Cc3nnc(N)s3)o2)cc1Cl,9.4,8,-22%,-0.8,-1%,-20%
O=C(C1CC(=O)N(c2ccccc2)C1)N1CCN(c2ccc(F)cc2)CC1 (configuration not stated),x,0,-2.6%,0.8,19%,8%
O=C(O)c1ccccc1-c1ccccc1C(=O)Nc1cccc2ccccc12,-0.9,-4,0.7%,-0.5,-54%[inhibitor],-12%
O=C(NCc1ccc(F)cc1)C1CCC(=O)N1C1CCCCC1 (configuration not stated),4.9,-18,0.3%,0.2,5%,14%
CCN(CC)S(=O)(=O)c1ccc(OC)c(NC(=O)c2ccc([N+](=O)[O-])cc2)c1,-2.0,68,x,1.1,12%[15.4 µM],4%
COc1ccc(-c2nn(-c3ccccc3)cc2/C=N/Nc2cccc(C(=O)O)c2)cc1,-1.1,-7,0.7%,-0.6,7%[15.4 µM],u
O=C(COC(=O)c1ccc(Cl)cc1[N+](=O)[O-])NNC(=O)c1cccs1,x,-4,1.4%,-0.3,-4%[15.4 µM],1%
COc1cccc(C(=O)N2CC(=O)Nc3ccc(C)cc3C2c2ccc(F)cc2)c1OC (configuration not stated),x,-7,-15%,0.8,x,x
COc1ccc(CNC(=O)CCn2c(=O)oc3ccccc32)cc1,-5.6,-3,1.7%,-0.2,-28%,4%
O=C(CCc1nc(-c2cccs2)no1)Nc1cnc2ccccc2c1,5.2,7,-4.2%,-0.2,27%,15%
COc1ccc(C(=O)N(C)Cc2ccc(OC)c(OC)c2OC)cc1S(=O)(=O)N1CCOCC1,x,-9,-0.7%,-0.3,11%,6%
COC(=O)C1=C(CSc2nc3ccccc3s2)NC(=O)NC1c1ccc(F)cc1 (configuration not stated),0.4,28,x,0.6,9%[15.4 µM],-18%
CCOC(=O)Cc1ccc(NC(=O)Nc2cccc(OCc3cc(=O)n4cc(C)ccc4n3)c2)cc1,x,-9,-2.7%,-0.5,x,x
CCOC(=O)c1cnc2ccc(OCC)cc2c1NCc1ccccc1OC,9.2,3,22µM*,0.4,1%[15.4 µM],32µM*
CCCCn1c(N)c(N(Cc2ccccc2OC)C(=O)c2cc(=O)[nH]c3ccccc23)c(=O)[nH]c1=O,x,9,-5.5%,-0.5,-11%,6%
O=C(C1CCCN(Cc2ccc(Br)cc2)C1)N1CCCCC1 (configuration not stated),4.8,33,-0.8%,3.8,-1%,7%
O=C(COc1ncnc2ccccc12)NC1CCS(=O)(=O)C1 (configuration not stated),-1.3,-9,-7.4%,0.7,18%,17%
Cn1c(=O)[nH]c(=O)c2c1nc(N1CCN(Cc3ccccc3)CC1)n2CCSc1ncccn1,-0.1,-7,-0.7%,0.3,3%,3%
C=CCN(C(=O)Cn1nc(C)n2c(cc3cc(C)ccc32)c1=O)c1ccccc1,-1.5,6,u,-0.1,-6%,-19%
Cc1ccc(S(=O)(=O)Cc2ccccc2Cl)cc1,5.9,3,0.0%,-0.6,0%[15.4 µM],5%
CCOc1ccc(C(=O)N2CCc3cc(OC)c(OC)cc3C2COc2ccc3c(C)cc(=O)oc3c2)cc1OCC (configuration not stated),x,10,-3.5%,1.2,x,x

Other structures follow:
Compound,Menin-MLL FL inh,TRPML1 inh,ClpP mod,TRPML1 agonist,gsp ag,gsp antag
CCOC(=O)C1(Cc2ccc(OC)cc2)CCN(C(=O)CCn2cccn2)CC1,2.4,9,x,1.3,7%[15.4 µM],-10%
O=C(COC(=O)c1ccccc1)c1ccc2c(c1)OCCO2,x,-12,-1.7%,0.7,-30%,-3%
CCOc1ccc(CCNC(=O)c2cc3c(=O)n(C)c4ccccc4c3n2C)cc1OCC,x,-5,-10%,0.3,x,x
Cc1noc(C)c1NC(=O)Nc1cccc2c1O[C@@H](CN(C)Cc1ccc3c(c1)OCO3)[C@@H](C)CN([C@H](C)CO)C2=O,x,-2,1.3%,0.5,x,18%
N#CCC(=O)Nc1ccc(C(F)(F)F)cc1N1CCOCC1,6.1,-7,0.9%,1.7,0%,2%
CCOC(=O)N1CCC(NC(=O)c2cnn(-c3ccc(F)cc3)c2-n2cccc2)CC1,x,25,1.4%,3.2,x,x
CCOc1cc(S(=O)(=O)n2ccnc2C(C)C)ccc1Cl,x,4,0.5%,0.5,x,x
CCCn1cnnc1CNC(=O)[C@H]1O[C@@H](n2cnc3c(N)ncnc32)[C@H](O)[C@@H]1O,x,-5,0.0%,0.8,x,x
CC(C)(C)NC(=O)NC(=O)CSc1ncccn1,-3.3,3,-0.7%,1.2,3%,10%
CC1CCC(NC(=O)c2ccc(S(C)(=O)=O)cc2)CC1 (configuration not stated),3.0,-1,x,0.0,1%[15.4 µM],-1%
CN(C(=O)CSc1ncnc2sc3c(c12)CCCC3)C1CCS(=O)(=O)C1 (configuration not stated),x,8,x,0.7,11µM*,-4%
Cc1ccc2nc(-c3ccccn3)c(Nc3ccc(F)cc3)n2c1,x,21,-1.0%,2.1,x,x
O=C(Nc1cc(Cl)cc(Cl)c1)c1ccc(F)c(S(=O)(=O)N2CCc3ccccc32)c1,x,15,-17%,2.5,x,x
CC(C)C[C@H](NC(=O)OC(C)(C)C)C(=O)N[C@@H](CO)[C@H](O)[C@@H]1C[C@@H]1C(=O)NC1CCCCC1,-4.5,-8,1.8%,-0.5,x,5%
Cc1ccc(C=Nc2ccccc2C#N)s1,3.0,-21,0.2%,0.9,-25%,-7%
COc1ccc(CNCCNC(=O)c2cccs2)c(OC)c1OC,0.2,18,x,-0.1,-6%[15.4 µM],x
COc1ccc(Oc2coc3cc(OC(=O)N4CCOCC4)ccc3c2=O)cc1,-3.7,24,0.0%,0.6,-78%[inhibitor],2%
N#Cc1ccccc1OCC(=O)OCC(=O)c1ccc2c(c1)NC(=O)CO2,2.9,6,-1.2%,1.1,7%,1%
Cc1cccc(COCC(Cc2ccccc2)N2CCN(C(=O)c3cc(Cl)cc(Cl)c3)CCC2=O)c1 (configuration not stated),-2.7,25,-0.2%,2.3,x,-18%
CC(C)(C)OC(=O)N1CCCC(C(=O)Nc2cccc(C(=O)NCc3ccccc3)c2)C1 (configuration not stated),x,27,0.1%,-0.3,x,-10%
CN(C)c1ccc(C2C3C(=O)N(c4ccc(C(=O)O)cc4)C(=O)C3ON2c2ccccc2)cc1 (configuration not stated),-0.3,10,-0.5%,-0.5,14%,-16%
O=C1N/C(=N/N=C/c2ccccc2O)SC1Cc1ccc(F)cc1 (configuration not stated),2.5,27,x,1.6,-14%[15.4 µM],-12%
O=c1[nH]c(C2CCCN(S(=O)(=O)c3ccccc3Cl)C2)nc2c1nnn2Cc1ccc(OC(F)(F)F)cc1 (configuration not stated),x,-19,-3.5%,-0.4,x,x
O=C(COc1ncnc2ccccc12)c1ccc(Cl)cc1,-0.7,18,x,1.9,5%[15.4 µM],0%
COc1ccc(C)cc1NC(=O)C(OC(=O)c1cccc(S(=O)(=O)N(C)c2ccccc2)c1)c1ccccc1 (configuration not stated),3.0,14,-4.9%,0.2,-31%[inhibitor],-13%

Continuation.
Compound,Menin-MLL FL inh,TRPML1 inh,ClpP mod,TRPML1 agonist,gsp ag,gsp antag
COC(=O)c1ccc(C)c(NC(=O)CSc2nnc3ccccn23)c1,x,-7,-25%,0.3,-21%,-2%
CCOC(=O)C1CCN(CCC(=O)Nc2ccc(Cl)cc2)CC1,-0.1,4,-3.5%,2.9,24%,7%
COc1ccc(-c2cc(=O)oc3c(C)c(OCC(=O)N(C)C)ccc23)cc1,-0.8,-6,-18%,0.8,-29%,-33%
COc1ccc(-c2cc(C)nc(SCC(=O)c3cccc([N+](=O)[O-])c3)n2)cc1,4.0,10,-0.1%,3.2,-25%,-10%
CC(C(=O)Nc1nncs1)N1C(=O)C2C3C=CC(C3)C2C1=O (configuration not stated),-0.6,-26,-2.8%,-0.1,-10%,3%
Oc1ccc(N=C/C=C/c2cccc(Br)c2)cc1-c1nc2ccccc2s1,9.2,7,-2.1%,1.3,-16%[15.4 µM],-1%
Cc1cccc(-c2noc(-c3cc4ccccc4oc3=O)n2)c1,8.8,9,8.9µM*,-0.8,-16%,-1%
Fc1cccc(/C=N/Nc2nc3ccccc3[nH]2)c1,-3.0,-3,x,1.3,-101%[inhibitor],-13%
COc1ccccc1-c1cc(NC(=O)COc2ccccc2Cl)n(-c2ccccc2)n1,x,-4,-0.5%,-0.4,x,x
CCOCCCNC(=S)N1CCN(Cc2ccco2)CC1,3.6,2,x,1.1,-7%,3%
CNc1c(NC(=O)C2CCC(C)CC2)c(=O)oc2ccccc12 (configuration not stated),-1.5,-13,x,-0.2,12%,5%
O=C(c1ccco1)N1CCN(Cc2cc(=O)oc3cc(O)ccc23)CC1,x,-10,4.3%,0.4,1%,-9%
CCC(C)C(NC(=O)c1ccccc1NC(=O)c1ccco1)C(=O)NNC(=O)c1ccncc1 (configuration not stated),-1.6,4,x,1.0,0%[15.4 µM],0%
CCC(O)CC(C(=O)NNc1ccccc1)C(=O)NNc1ccccc1 (configuration not stated),-6.2,-3,x,-1.0,15%[15.4 µM],6%
CN(CC(=O)N1CCC(C(N)=O)CC1)S(=O)(=O)c1ccc2ccccc2c1,-0.1,18,x,0.3,-11%,1%

Some values from above:
Result of Oc1ccc(N=C/C=C/c2cccc(Br)c2)cc1-c1nc2ccccc2s1 in TRPML1 inh: 7
Result of CCC(C)C(NC(=O)c1ccccc1NC(=O)c1ccco1)C(=O)NNC(=O)c1ccncc1 (configuration not stated) in Menin-MLL FL inh: -1.6

The order is random, and some 2.1% of all compounds hit somewhere here.
